Assay outcomes (PubChem)
CDC25B CDK2 inh – primary biochemical HTRF screen for blockers of M-phase inducer phosphatase 2 binding to CDK2/cyclin A; P30305+P24941; HTRF CDC25B-CDK2/CyclinA binding, anti-His/anti-Flag; stronger effect = higher value; z-score (concentration not given with the values); actives 0.72% (n = 94,000); AID 1259370, 2018;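 also: score is relative to mean and SD of negative controls; strong numbers were not always called active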
TAR Tat displ – TAR RNA-Tat peptide displacers, HIV-1, primary screen, biochemical, FRET, FAM/TAMRA-labeled Tat | HIV-1 TAR RNA, Tat peptide displacement FRET; stronger effect = higher value | actives 0.6% (n = 100,000) | z-score (test concentration not listed);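 also: score is relative to mean and SD of negative controls; some compounds called inactive have numbers as strong as hits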
* hit, by the source's call; . = not tested or not shown.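 The calls were made as follows: active = z-score from 3 up in half or more of its runs; inactive = the rest.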

SMILES	CDC25B CDK2 inh	TAR Tat displ
Cc1cc(C)cc(NS(=O)(=O)c2ccc3c(c2)CCCC(=O)N3)c1	.	0.02
CC1(C)CC(=O)c2cnc(NC(=O)CSc3nc4ccccc4s3)nc2C1	-1.5	0.92
CC(C)CNC(=O)N1CC2CCCN2c2ccccc21 (stereo not drawn)	1.9	-5.1
COc1ccc(C2NC(=O)c3c(sc4c3CCCC4)N2)c(OC)c1 (stereo not drawn)	-2.9	-0.87
CN(C(=O)c1ccc2c(=O)n3c(nc2c1)CCCCC3)C1CCCCC1	0.11	.
Cc1nc2[nH]c(=S)[nH]c2cc1Br	-0.61	.
O=C(O)C1C2C=CC(C2)C1C(=O)N1CCN(CCO)CC1 (stereo not drawn)	-1	0.87
Cn1c(=O)c(=O)n(C)c2cc(S(=O)(=O)CCC(=O)N3CCOCC3)ccc21	-0.17	-0.61
Cc1cc2sc(NC(=O)c3ccc(N)cc3)nc2cc1N	-0.71	.
O=S(=O)(Nc1cccc(-c2ccc(N3CCOCC3)nn2)c1)c1cc(F)ccc1F	.	0.94
O=C(Nc1nnc(C2CCCCC2)s1)C(=O)c1c[nH]c2ccccc12	-1.2	-1.2
COc1cccc(C2c3c(oc4ccc(F)cc4c3=O)C(=O)N2Cc2ccc3c(c2)OCO3)c1 (stereo not drawn)	-0.13	-1.3

The list goes on (four carried over from the part before).
SMILES	CDC25B CDK2 inh	TAR Tat displ
Cc1cc2sc(NC(=O)c3ccc(N)cc3)nc2cc1N	-0.71	.
O=S(=O)(Nc1cccc(-c2ccc(N3CCOCC3)nn2)c1)c1cc(F)ccc1F	.	0.94
O=C(Nc1nnc(C2CCCCC2)s1)C(=O)c1c[nH]c2ccccc12	-1.2	-1.2
COc1cccc(C2c3c(oc4ccc(F)cc4c3=O)C(=O)N2Cc2ccc3c(c2)OCO3)c1 (stereo not drawn)	-0.13	-1.3
COc1ccc(S(=O)(=O)c2cnc3ccc(F)cc3c2NCc2ccc(F)cc2)cc1	-1.8	-1.1
CCC(C)N(CCNC(=O)Cn1c(=O)oc2ccccc21)Cc1ccco1 (stereo not drawn)	.	-0.1
O=C(c1cccc(N2C(=O)CCS2(=O)=O)c1)N1CCCC1	-0.79	-0.34
COc1cccc2c1Oc1nc(-c3ccccc3)nc(SCC(N)=O)c1C2	-0.32	0.79
Cc1nc2nc(C)c(CCC(C)C)c(=O)n2[nH]1	-1.4	-0.26
CC(C)c1ccc(NC(=O)Cc2ccc(NC3=NC4CS(=O)(=O)CC4S3)cc2)cc1 (stereo not drawn)	-0.55	0.06
O=C(CN1C=NS(=O)(=O)c2ccccc21)Nc1cccc(Cl)c1	.	0.55
C(=C\c1nc2ccccc2n1Cc1ccccc1)/c1ccco1	2.6	-7.2
COc1ccccc1-c1nc2c(c(=O)[nH]1)Cc1cccc(OC)c1O2	-2.1	1.9
COc1ccc(C(=O)NC2CCC(CC3CCC(NC(=O)c4ccc(OC)c(OC)c4)CC3)CC2)cc1OC (stereo not drawn)	-3.5	.
CCOC(=O)CSc1ncn(-c2nc(C)cc(N3CCOCC3)n2)n1	-1	0.52
COc1ccc(-c2nn3c(C4COc5ccccc5O4)nnc3s2)cc1 (stereo not drawn)	-1.1	0.12
CCC(C)(C(=O)NC1CCCC1)N(CC1CCCO1)C(=O)Cc1cccs1 (stereo not drawn)	0.83	.
Cc1c(Cl)c(-c2n[nH]c(=S)n2Cc2ccco2)nn1C	-1.2	.
O=C1c2[nH]nc(-c3ccccc3O)c2C(c2cccc(OCc3ccccc3)c2)N1Cc1ccco1 (stereo not drawn)	0.31	1
Cn1nnnc1SCCNCc1cccc(OCc2ccc(F)cc2)c1	-1.3	-3.9
CN1CCN(c2cc(N3CCCCC3)c3c4c(onc24)-c2ccccc2C3=O)CC1	5.6*	-6
CCCc1cnc(N2CCSCC2)nc1	-2.5	.
COc1ccc(CNc2nc3c(S(=O)(=O)c4ccc(F)cc4)nnn3c3ccccc23)cc1	-1.6	0.4
N#C/C(=C\Nc1ccccn1)C(=O)C1CC1	-0.01	.
Cc1cc(Nc2cccc(F)c2)n2nnnc2n1	-0.88	-0.42
CN(C)CCNC(=O)Cc1noc2ccccc12	-2.2	-0.06
CCOC(=O)c1ccc(NC(=O)CSCc2ccccc2C)cc1	-0.67	.
CCn1c(O)c(C#N)c(C)cc1=O	-0.2	.

Retrieved by structure from above:
SMILES	CDC25B CDK2 inh	TAR Tat displ
CN(C)CCNC(=O)Cc1noc2ccccc12	-2.2	-0.06
COc1ccc(CNc2nc3c(S(=O)(=O)c4ccc(F)cc4)nnn3c3ccccc23)cc1	-1.6	0.4
N#C/C(=C\Nc1ccccn1)C(=O)C1CC1	-0.01	.
CCC(C)(C(=O)NC1CCCC1)N(CC1CCCO1)C(=O)Cc1cccs1 (stereo not drawn)	0.83	.
CCOC(=O)c1ccc(NC(=O)CSCc2ccccc2C)cc1	-0.67	.
CCn1c(O)c(C#N)c(C)cc1=O	-0.2	.
CCCc1cnc(N2CCSCC2)nc1	-2.5	.

(list continues)
SMILES	CDC25B CDK2 inh	TAR Tat displ
CCn1c(=O)[nH]c2c(c1=O)C(CC)(CC)Cc1ccccc1-2	0.1	-1.4
O=S(=O)(NCc1ccccn1)c1cccc2ccccc12	-0.15	0.87
CCCc1nnc(NC(=O)C2CC(=O)N(CCc3c[nH]c4ccc(Cl)cc34)C2)s1 (stereo not drawn)	-0.78	0.68
COc1ccc(NC(=O)c2noc3c2CCCC3)c(OC)c1	.	0.51
COCCCN1C(=O)C(=O)/C(=C(/O)c2ccccc2)C1c1ccc(C(C)C)cc1 (stereo not drawn)	0.66	1.1
COc1ccc(-c2nnc3ccc(SCc4cccnc4)nn23)cc1OC	-1.7	.
CCOC(=O)C1CCN(S(=O)(=O)c2cccc3nsnc23)CC1	.	2.3
O=C(CSc1ccc2nnc(CCNS(=O)(=O)c3ccccc3)n2n1)c1ccccc1	.	2.2
COc1cc2c(cc1OC)C(C(C)C)=NC(C)(C)C2	-0.72	-0.78
COc1ccc(-c2nc(SCC(=O)Oc3ccc(Cl)cc3)n3[nH]c(=O)cc3n2)cc1	.	2.6
CC1CC(=O)Nc2ccccc2N1S(=O)(=O)c1cccc2nonc12 (stereo not drawn)	0.23	.
O=C1c2cccnc2C(=O)N1Cc1ccc(S(=O)(=O)NCc2ccccc2Cl)cc1	.	-0.34
COc1cccc2c(=O)c(NC(=O)N3CCCC3)c[nH]c12	-0.37	-0.22
CCCNC(=O)C1CCN(C(=O)N2CC(C)Oc3ccc(Cl)cc32)CC1 (stereo not drawn)	.	-1.2
Cn1ncc2c(Nc3ccc(Cl)cc3)nc(NC3CCCCC3)nc21	.	-0.92
COC(=O)c1sccc1N(C)S(C)(=O)=O	-1.3	.
O=C(NCc1noc2ccccc12)N1CCCc2ccccc21	.	-0.53
CC(CCc1ccccc1)NC(=O)CSc1nc(-c2ccc3c(c2)OCO3)nc2cc(=O)[nH]n12 (stereo not drawn)	.	1.9
COc1ccccc1C1CC(=O)CC(c2ccccc2OC)S1 (stereo not drawn)	-0.04	.
Cc1c(CCNS(=O)(=O)c2ccccc2F)sc2nc(-c3ccc(F)cc3)nn12	.	1.1
Cc1nc2ccccc2n1CCc1nc2c3ccccc3nc(NCc3cccnc3)n2n1	0.6	-0.1
Nc1ncnc(Nc2ccc(Oc3ccc(Cl)cc3)cc2)n1	-0.75	.
CCC(=O)N1CCc2cc(Br)cc(S(=O)(=O)NC3CCCc4ccccc43)c21 (stereo not drawn)	-0.32	.
Cc1cc(C)n(-c2cc(N3CCN(c4ccccc4)CC3)ncn2)n1	.	3.6
CCCc1cc(=O)n2nc(N3CCC(C(=O)N4CCN(c5ncccn5)CC4)CC3)sc2n1	0.25	0.12
Cc1cccc(NC2CS(=O)(=O)CC2O)c1 (stereo not drawn)	0.94	2.4
COC(=O)CC1C(=O)NCCN1C(=O)COc1ccc(Cl)cc1 (stereo not drawn)	-1.1	.
CN(C)c1ccc(CN2CCc3nc(Nc4ccc5c(c4)OCO5)ncc3C2)cc1	.	0.24
COc1ccc(Cl)cc1NC(=O)C(C)Sc1nc(C)nc2c1CCC2 (stereo not drawn)	-2.1	-0.72
Cc1c(C)c(C)c(CSC(=N)c2ccc[nH]2)c(C)c1C	-2.4	.
COc1ccc(-n2c(Cc3cccn3C)nnc2SCC(=O)N2CCCC2)cc1	-0.81	-0.67
O=C(Nc1cccc(Cl)c1)c1ncoc1-c1ccco1	.	0.86
O=C(NCC1CCCO1)c1ccc2c(c1)N(Cc1ccc(Cl)cc1)CCS2 (stereo not drawn)	.	-0.01
COc1cc(OC)c(N(C)C(=O)c2cc3c(s2)-c2ccccc2S(=O)(=O)C3)cc1Cl	-1.7	0.21
CC(C)Nc1cc(N2CCN(C(=O)c3ccco3)CC2)c2noc3c2c1C(=O)c1ccccc1-3	0.59	5.6*
O=C1CN(S(=O)(=O)c2ccccc2)C(c2ccccc2)c2cc(Br)ccc2N1 (stereo not drawn)	0.8	1.2
CCCc1cc(C(=O)OC)c(NC(=O)CCC(=O)O)s1	-1.8	0.26
CCCCCOC(=O)C1=C(C)Nc2ncnn2C1c1ccc(OC)c(OC)c1 (stereo not drawn)	-0.86	-0.07
CCn1c(CNc2nc3ccccc3n2C(C)C)nc2ccccc21	0.41	0.88
CCN1C(=O)Cc2cc(NS(=O)(=O)c3ccc4c(c3)CCCC4)ccc21	.	0.88
COc1ccc(S(=O)(=O)[C@H]2CS(=O)(=O)C[C@@H]2NCCc2c[nH]c3ccccc23)cc1	-0.33	1.6
Cc1cc(C)cc(NC(=O)NCc2c(C)nn(C)c2C)c1	.	-0.48
CSc1nsc(SCC(=O)Nc2nc(-c3ccccc3)cs2)n1	0.79	-0.72
Cc1ccc(S(=O)(=O)c2nc(S(C)(=O)=O)sc2NC(C)c2ccccc2)cc1 (stereo not drawn)	-0.93	0.92
COc1cccc(-n2nnc(-c3nc(-c4ccccc4)no3)c2N)c1	-1.2	2.7
CN(C1CCCCC1)S(=O)(=O)N1CCCC(C(=O)NC2CCCCC2)C1 (stereo not drawn)	.	0.57
CCOC(=O)c1sc(=S)n(-c2ccc(F)c(F)c2)c1N	.	17*
CCN(CC)CCNC(=O)CCCn1nc(C)n2c(cc3occc32)c1=O	0.9	1.6

As entered above:
Cc1ccc(S(=O)(=O)c2nc(S(C)(=O)=O)sc2NC(C)c2ccccc2)cc1 (stereo not drawn) | TAR Tat displ: 0.92
CN(C1CCCCC1)S(=O)(=O)N1CCCC(C(=O)NC2CCCCC2)C1 (stereo not drawn) | TAR Tat displ: 0.57
CCCCCOC(=O)C1=C(C)Nc2ncnn2C1c1ccc(OC)c(OC)c1 (stereo not drawn) | CDC25B CDK2 inh: -0.86
Cc1cc(C)cc(NC(=O)NCc2c(C)nn(C)c2C)c1 | TAR Tat displ: -0.48

(further entries)
SMILES	CDC25B CDK2 inh	TAR Tat displ
CN(Cc1ccco1)C(=O)Cn1ncc2c1-c1ccccc1OC2	-0.76	-0.22
CC1CCCN(S(=O)(=O)c2cccc(-c3cn4cc(Cl)ccc4n3)c2)C1 (stereo not drawn)	-2.1	0.83
COc1cc(C2Nc3c(C)cccc3-c3cc(C)nn32)ccc1O (stereo not drawn)	-2.3	0.25
COC(=O)c1ccc2c(O)c(S(=O)(=O)c3ccc(OC)cc3)c(=O)[nH]c2c1	-1.9	1.5
Cc1c(NS(=O)(=O)c2ccc(CC(C)C)cc2)c(-n2cnnc2)nn1C	2	0.88
Cc1nn(C(=O)Nc2ccccc2)c(C)c1Oc1ccc(Cl)cc1	-1.2	.
C=CCOc1ccc(CNc2ccc3[nH]c(=O)[nH]c3c2)cc1OC	1.2	-0.17
Cc1cccc(NS(=O)(=O)c2ccc3c(c2)NC(=O)CC(C)S3)n1 (stereo not drawn)	.	0.81
OCCCc1nc2ccc(C(F)(F)F)cc2[nH]1	-2.3	.
CCN(CC)S(=O)(=O)c1ccc(-c2cc(C(=O)OC)sc2C(F)(F)F)cc1	-0.71	.
O=C(COc1cc2oc(=O)c3c(c2cc1Cl)CCC3)c1ccc2ccccc2c1	-4.3	.
Cc1nn(-c2nc3ccc(Br)cc3s2)c2c1C(c1c(F)cccc1Cl)CC(=O)N2 (stereo not drawn)	.	-0.03
CCc1cc2c3c([nH]c2cc1S(=O)(=O)NCC1CCCO1)CC(C)(C)CC3=O (stereo not drawn)	.	0.97
CC1(C)CC2(CC(C)(c3csc(Nc4ccccc4Cl)n3)OC2=O)C(=O)O1 (stereo not drawn)	-1.1	.
CCNc1cc(N2CCN(C)CC2)c2noc3c2c1C(=O)c1ccccc1-3	-2.6	0.06
CCCC(=O)N1c2nc(C(C)C)nn2C2(CCCCC2)[C@@H]2CCCC[C@@H]21	0.89	1.7
COC(=O)c1sc2cccc(F)c2c1S(=O)(=O)Nc1cc(OC)ccc1OC	.	0.56
O=C(CN1C(=O)CCc2cc(Br)ccc21)NC1CCCc2ccccc21 (stereo not drawn)	.	0.07
c1ccn2c(Nc3ccc4c(c3)OCCO4)c(-c3ccsc3)nc2c1	-1.8	0.98
Cc1ccc(S(=O)(=O)NCCc2cn3ccc(C)cc3n2)c(C)c1	-1.5	.
CN(C)c1ccc(-c2nc3c4c5c(sc4ncn3n2)CCCC5)cc1	0.6	.
Cc1nc(N(C)C)ncc1C(=O)NC1CCCC1	.	0.97
COc1ccc(Nc2nc(-c3cccc(OC)c3OC)no2)cc1	.	0.97
Cc1cc(-c2ccc(S(=O)(=O)N3CCN(c4cccc(Cl)c4)CC3)s2)n[nH]1	.	0.17
COc1ccc(-c2onc(C)c2C)cc1S(=O)(=O)N1CC=C(c2ccccc2)CC1	.	0.66
O=C(NCC1CCCO1)C1CCC(CNS(=O)(=O)c2cccc3cccnc23)CC1 (stereo not drawn)	-0.44	.
Cc1ccc(-c2nc(N3CCOCC3)nc3ccccc23)cc1	-1	.
